High-throughput results (PubChem BioAssay)
RGS16-Gao: RGS16-Galphao interaction regulator (human) | AID 1441 | hit rate 0.38% among 220,000 | bead-based flow cytometry RGS16-Galphao binding, fluorescence; actives lie on both sides | binding response (% of control), % at 10 µM | O15492+P09471;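 active = below 25% or above 175%, edge rows of some plates excepted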;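 also: Galphao activated by GDP with aluminum fluoride before binding; 100% = wells without compound and 0% = beads without RGS; some results beyond the cut were filed as inactive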
HSV replic up: increases HSV replication in cells | HSV replication augmentation in cells, fold increase | maximum fold increase | hit rate 0.005% among 220,000 | AID 1956;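 active = peak rise of 1.5-fold or more in the series; inconclusive = self-fluorescent or not available for retest; tested in PC3 cells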;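 also: first round at 10 µM; read as green reporter fluorescence; hits show the peak of a series up to 25 µM; 1 = signal of infected wells without compound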
PKD1 inh: inhibitors of human PKD1 kinase | Q15139 | PKD1 kinase fluorescence polarization assay | inhibition, %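 (about 10 µM by stock and volumes)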 | hit rate 0.056% among 200,000;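 active = inhibition of 50% or more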;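 also: controls were vehicle for no effect and a reference inhibitor for full effect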
Target sequence (Q15139 whole entry, looked up): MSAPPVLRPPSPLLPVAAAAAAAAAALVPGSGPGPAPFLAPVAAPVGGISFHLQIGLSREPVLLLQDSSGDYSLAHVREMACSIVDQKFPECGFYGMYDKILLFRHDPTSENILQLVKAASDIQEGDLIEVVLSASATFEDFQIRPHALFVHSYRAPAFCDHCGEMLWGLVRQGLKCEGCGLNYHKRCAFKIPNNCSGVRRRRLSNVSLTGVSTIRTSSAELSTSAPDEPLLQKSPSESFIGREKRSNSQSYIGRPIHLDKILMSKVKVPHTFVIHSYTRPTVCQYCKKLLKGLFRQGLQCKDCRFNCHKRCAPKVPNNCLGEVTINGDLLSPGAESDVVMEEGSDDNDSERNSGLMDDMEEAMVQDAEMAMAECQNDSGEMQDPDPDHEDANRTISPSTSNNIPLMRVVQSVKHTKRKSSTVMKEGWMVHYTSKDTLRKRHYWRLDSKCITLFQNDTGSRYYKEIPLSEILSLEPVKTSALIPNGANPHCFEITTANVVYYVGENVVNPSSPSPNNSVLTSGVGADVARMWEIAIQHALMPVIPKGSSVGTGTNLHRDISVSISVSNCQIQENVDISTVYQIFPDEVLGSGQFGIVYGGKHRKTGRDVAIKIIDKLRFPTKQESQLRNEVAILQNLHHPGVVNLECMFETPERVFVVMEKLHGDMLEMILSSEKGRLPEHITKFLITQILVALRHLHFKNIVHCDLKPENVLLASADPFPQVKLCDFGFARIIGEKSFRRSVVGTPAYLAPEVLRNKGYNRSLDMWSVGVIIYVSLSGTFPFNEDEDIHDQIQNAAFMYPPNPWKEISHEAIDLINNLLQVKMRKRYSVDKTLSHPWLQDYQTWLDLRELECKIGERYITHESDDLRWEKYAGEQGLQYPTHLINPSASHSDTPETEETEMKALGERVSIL
Insulin prom inh: TRM-6 insulin promoter activity inhibition. TRM-6 cells (human fetal islet line), insulin promoter-eGFP reporter, imaging; reporter expression induced with tamoxifen. inhibition, % at 2 µM. hit rate 0.9% among 130,000. AID 1273;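 active = inhibition above the mean plus 3 SD, with well images judged a real hit on visual review, cut at about 60% in these data, passing the limit was not always enough; inconclusive = inhibition over the cutoff but images rejected on review; inactive = inhibition not above the cutoff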
GALR2 agonist: activates the human galanin receptor 2 | O43603 | GALR2-expressing cells, agonist activation read-out | activation, %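 (tested at 5 µM)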 | hit rate 0.48% among 140,000;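 active = above mean plus 3 SD of all compounds, about 5% in these data, not always enough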;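 also: 0% = vehicle buffer wells and 100% = reference agonist at full effect; tested in CHO reporter cells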
Insulin prom inh cell count: further read-out of Insulin prom inh, marked with its call; normalized cell count, %; measured here: cell count, toxicity; reference of the scale not given here;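 cells exposed to compound for 48 h; stained nuclei by imaging scaled within each plate; lower means fewer cells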
HSV replic up primary fold: recorded beside HSV replic up, whose call it bears; fold increase; compound at 10 µM; measured here: primary screen fold increase 10 uM; tested in PC3 cells;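 GFP signal in the first replicate; 1 = infected wells without compound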
* marks the source's active call; other numbers are inactive results; i = inactive; ? = inconclusive; . = not tested or not shown.

SMILES	RGS16-Gao	HSV replic up	HSV replic up primary fold	PKD1 inh	Insulin prom inh	Insulin prom inh cell count	GALR2 agonist
COc1ccccc1N1CCN(Cc2nc(N)nc(Nc3ccccc3)n2)CC1	104	i	0.9	4	.	.	-0.3
CCOC(=O)C1CCN(C(=O)N(C)C)CC1	110	i	1	0	-5	117	-2.0
CCN(CC(=O)Nc1ccc(Br)c(C)c1)CC(=O)NC(C)C	102	i	0.99	5	-91	126	.
COc1ccc(-c2nn(-c3ccccc3)cc2/C=C(\C#N)S(=O)(=O)c2ccccc2)cc1OC	92	i	0.84	-2	-46	91	-0.2
Cc1nnc(SCCn2c(N3CC(C)CC(C)C3)nc3c2c(=O)[nH]c(=O)n3C)s1 (stereo unspecified)	103	i	0.94	0	64	64	-0.4
O=C(c1ccco1)N1CCN(C(=O)N2CCCCC2)CC1	100	i	1.1	3	.	.	.
CC12CCC(C(=O)Nc3cccc4ccccc34)(C1Br)C2(C)C (stereo unspecified)	103	i	1	-3	6	130	-2.6
COc1ccc(CCC(C)Nc2ccccc2F)cc1 (stereo unspecified)	103	i	1.2	4	.	.	-0.1
CCOC(=O)c1c(-c2ccc(C)o2)csc1NC(=O)CSc1nnc(C)s1	97	i	1	-4	.	.	-1.5
COc1cccc(NC(=O)Cn2c(CCC(=O)O)ccc2-c2ccccc2)c1	103	i	0.96	-9	.	.	.
O=c1c(/C=N/O)coc2ccc(Cl)cc12	104	i	1	.	.	.	.
O=C(N1CCOCC1)N(Cc1cccs1)C1CCCC1	67	i	0.9	2	.	.	-3.4
COc1ccc(/C=C2\C(=O)NCC(=O)N2Cc2ccccc2)cc1	92	i	0.93	6	9	92	-3.3
COc1ccc(-c2[nH]ncc2CN(C)Cc2cc(C)[nH]n2)c(F)c1	124	i	0.97	3	.	.	.
COc1ccc(N2C(=O)CC(N3CCN(c4ccc(S(C)(=O)=O)cc4)CC3)C2=O)cc1 (stereo unspecified)	104	i	1.1	-1	-16	89	-1.2
CCOC(=O)c1csc(NC(=O)c2ccc(OC)c(OC)c2)n1	100	i	1.1	-1	.	.	-2.5
CC(C)CCOc1ccc(C(=O)C[N+]2(C)CCOCC2)cc1	96	i	0.93	-11	43	151	-0.8
O=C(NCc1ccco1)c1cc2nc(-c3cccs3)cc(C(F)(F)F)n2n1	87	i	0.88	5	-31	92	1.4
Cc1c(C(N)=O)sc2nc(-c3ccccc3)cn12	106	.	.	1	.	.	-2.9
COc1ccc(-c2ccc(/C=C3/C(=N)N4C=CSC4=NC3=O)o2)c([N+](=O)[O-])c1	99	i	1	-4	-13	78	-1.7
N#Cc1c(C(F)(F)F)cc(-c2cccs2)nc1SCC(=O)O	138	i	0.92	.	.	.	.
CC(=O)Nc1ccc(NC(=O)CN(c2ccc(F)cc2)S(=O)(=O)c2ccc3c(c2)OCCO3)cc1	98	i	0.91	8	19	122	-0.5
CC(C)(C)C(=O)NCC12C=CC(O1)C1C(=O)N(c3ccccc3)C(=O)C12 (stereo unspecified)	104	i	0.85	-4	6	116	-1.0
CC(O)[C@H]1CNC(=S)N1CCc1cccc(F)c1 (stereo partly specified)	101	i	0.89	.	.	.	.
CC(C)(C)OC(=O)[C@H](Cc1ccccc1)NC(=O)c1nc[nH]c1C(=O)NCc1ccccc1	106	i	0.94	12	.	.	.
CCOC(=O)c1nn(-c2cccc(C)c2)cc1C(=O)c1ccccc1	102	.	.	0	-20	107	-1.7
O=C(COc1ccc(Cl)cc1Cl)N(Cc1ccco1)C1CCS(=O)(=O)C1 (stereo unspecified)	107	i	1.2	3	-18	116	-1.1
CCCc1[nH]n(-c2nc3ccccc3s2)c(=O)c1C=NCCCN(CC)CC	113	i	1	-6	21	104	.
COCCN(CC(=O)NCc1ccccc1)C(=O)CCC(=O)Nc1nccs1	98	i	0.94	-11	.	.	-1.9
COc1ccc(-c2nnc(SCC(=O)NCCc3ccc(S(N)(=O)=O)cc3)o2)cc1OC	100	i	0.77	.	.	.	.
CS(=O)(=O)C1=NSC2=NC(=O)/C(=C\c3cccn3-c3ccc(Cl)cc3)C(=N)N21	102	i	1.2	-6	-8	84	-0.3
CCOC(=O)Nc1ccc(C)cc1C	100	i	0.96	-4	-78	96	-2.4
C#CCOc1ccc(/C=C2\SC(=S)N(Cc3cccnc3)C2=O)cc1	109	.	.	-12	-33	42	0.2
NC(=O)CSc1nnnn1-c1ccc(OC(F)(F)F)cc1	135	i	0.82	3	.	.	-1.0
COc1ccc(CNS(=O)(=O)c2ccc(C3CNC(=O)C3)cc2)cc1 (stereo unspecified)	98	i	0.69	-2	29	149	-1.5
Cn1[nH]c(-c2ccccc2)c(/C=N/O)c1=O	107	i	1.2	1	.	.	.
CC(=O)c1ccc(N2CCN(C(=O)/C=C/c3cccs3)CC2)cc1	103	i	1.1	-13	.	.	.
COc1nc(N)nc(N2CCOCC2)n1	101	i	1.1	3	-126	129	-1.1
O=C(NCc1cccs1)c1ccccc1F	101	i	0.82	2	-15	74	0.3
CC(C)(C)c1nc(SCC(=O)NCc2cccs2)c2ccccc2n1	112	i	0.81	-5	-33	90	.
Fc1ccc(CCNC(=S)Nc2ccc(F)cc2)cc1	101	i	0.96	-7	.	.	-0.8
Cc1ccc(/C=N\NC(=O)c2cc(OCC(F)(F)F)ccc2OCC(F)(F)F)cc1	96	i	0.86	-7	.	.	0.8
O=C(CN1C(=O)c2ccc([N+](=O)[O-])cc2C1=O)NCc1ccco1	95	i	1	-4	5	95	.
CCOC(=O)c1sc2nc(CSc3ccccc3)[nH]c(=O)c2c1C	102	i	1	-5	-107	108	.
C=CCn1cn[nH]c1=S	95	i	1.1	-10	-24	90	.
O=C1NCCN(Cc2ccoc2)C1CC(=O)N(Cc1ccccc1)CC1CCC1 (stereo unspecified)	98	i	1.1	5	.	.	.
CSc1ccc(CN(C)CC(=O)NCc2ccccc2)cc1	99	i	0.9	-6	.	.	.
COc1cccc(C(=O)Oc2ccccc2/C=C\C(=O)c2cc3ccccc3o2)c1	98	i	0.95	-12	.	.	-1.1
O=C(CN1CCN(c2ccccc2F)CC1)NC(=O)NCc1ccccc1	100	i	0.9	-11	-21	84	.
COc1ccccc1-c1cc(C(F)(F)F)nc(S(=O)(=O)CCCC(=O)N2CCOCC2)n1	107	i	0.6	-2	23	93	11
Cc1ccc(S(=O)(=O)N2CCN(c3ccc([N+](=O)[O-])cn3)CC2)cc1	107	i	1.1	.	.	.	.
CCOc1ccc(S(=O)(=O)Nc2cccc(N(C)S(C)(=O)=O)c2)cc1	103	i	0.97	-8	37	95	-3.4
COc1ccc(Nc2cc(C)nc(N)n2)cc1	99	i	0.96	.	.	.	.
Cn1c(CN2CCOCC2)nc2cc(NC(=O)COc3ccc([N+](=O)[O-])cc3)ccc21	100	i	0.95	-1	.	.	.
O=C(Nc1ccc2c(c1)nc1n2CCN(Cc2ccccc2)C1)NC1CCCCC1	93	i	1.1	-10	-54	99	-0.4
COCCOC(=O)C1=C(C)N=C2SCCC(=O)N2C1c1ccc(C(=O)OC)cc1 (stereo unspecified)	96	i	0.92	1	-33	103	-2.0
COc1cc(CNc2nc3ccccc3[nH]2)cc(OC)c1OC	.	i	0.85	-7	19	139	-1.0
NC(=O)c1c(NC(=O)c2ccc(S(=O)(=O)N3CCOCC3)cc2)sc2c1CCCCC2	104	i	1.1	-14	.	.	0.3
CC(C)Oc1cccc(C(=O)NC(=S)Nc2ccc(Cl)c(C(=O)O)c2)c1	98	i	0.95	-4	35	109	-2.7
CCn1ccnc1CN1CCCC(C(=O)c2ccc3cc(OC)ccc3c2)C1 (stereo unspecified)	105	i	1	0	.	.	.

(continued)
SMILES	RGS16-Gao	HSV replic up	HSV replic up primary fold	PKD1 inh	Insulin prom inh	Insulin prom inh cell count	GALR2 agonist
O=C(CSc1nnc(C2CCCCC2)o1)N1CCCCC1	108	i	0.79	-8	.	.	-1.7
COc1ccc(CN(C)CC(=O)Nc2cc3oc4ccccc4c3cc2OC)c(OC)c1	99	i	0.81	-12	0	85	0.0
CN1C2C=C3C(C#N)=C(N)C(C#N)(C#N)[C@@H](c4cccs4)C3C1CC2 (stereo partly specified)	100	i	1	-8	14	111	-3.4
CCOC(=O)c1c(NC(=O)c2ccnn2C)sc(C)c1C	101	i	0.82	-3	40	131	-1.4
CCOc1ccc(-c2nnc(-c3ccccc3)o2)cc1	95	i	1	2	69	115	-1.7
Fc1ccccc1-c1nc(-c2cnccc2C(F)(F)F)no1	97	i	1.1	.	.	.	.
CCCC(=O)N1CCN(c2ccc(NC(=O)c3cc4ccccc4o3)cc2Cl)CC1	88	i	0.88	-6	-159	2	-3.4
CCc1nc2ccc(C(=O)O)cc2nc1CC	70	i	0.97	4	0	90	-0.3
COc1ccc(CCNC(=O)CSc2nc(N)c(C#N)c(-c3cccs3)c2C#N)cc1OC	101	i	0.86	-4	.	.	-0.2
CN1CCCN(C(c2ccccc2)c2ccc(Cl)cc2)CC1 (stereo unspecified)	107	i	0.69	1	-55	99	-0.4
CCC(C)Nc1nc2c(c(=O)[nH]c(=O)n2C)n1CCC(C)C (stereo unspecified)	97	i	1	-7	32	92	-0.8
Cc1ccc(-c2n[nH]c(=S)n2/N=C\c2ccco2)cc1	102	i	0.88	0	0	100	-1.3
N#Cc1c(NC(=O)C2CC(Cl)=CCC2C(=O)O)sc2c1CCCC2 (stereo unspecified)	103	i	0.98	-9	.	.	.
CCCCCCNC(=O)C(C#N)c1nc2ccccc2nc1N1CCOCC1 (stereo unspecified)	103	?	.	-1	.	.	-0.7
Cc1ccccc1OCCCC(=O)Nc1nccs1	92	i	0.91	-6	-21	164	-0.9

Whole records, looked up by structure. Order of values: RGS16-Gao | HSV replic up | HSV replic up primary fold | PKD1 inh | Insulin prom inh | Insulin prom inh cell count | GALR2 agonist
`Fc1ccccc1-c1nc(-c2cnccc2C(F)(F)F)no1` is entered as 97 | i | 1.1 | . | . | . | .
`CCCC(=O)N1CCN(c2ccc(NC(=O)c3cc4ccccc4o3)cc2Cl)CC1` is entered as 88 | i | 0.88 | -6 | -159 | 2 | -3.4

Continuation.
SMILES	RGS16-Gao	HSV replic up	HSV replic up primary fold	PKD1 inh	Insulin prom inh	Insulin prom inh cell count	GALR2 agonist
c1ccc(-c2csc3ncnc(N4CCOCC4)c23)cc1	101	i	1	-1	29	77	.
Cc1ccc(C(=O)Nc2cccc(N(C)S(C)(=O)=O)c2)cc1S(=O)(=O)Nc1ccccc1	107	i	1.2	12	.	.	-1.7
C[C@@H]1CC=C[C@H]2[C@H]1C(=O)N(Cc1ccccc1)[C@H]2c1ccc(Br)cc1F	102	i	0.75	.	.	.	.
N#Cc1c(Cl)cccc1N1CCC(C(N)=O)CC1	102	i	0.91	.	.	.	.
CN(c1ccc(C(=O)NCCSC(C)(C)C)cc1)S(=O)(=O)c1ccccc1	93	i	1	10	0	135	.
Nn1c(SCC(=O)NC(=O)NCc2ccccc2)nnc1C1CC1	101	i	1.1	0	-18	81	-2.0
Cc1cccc(NC(=O)C2CCCN(S(=O)(=O)c3c(C)nn(C)c3C)C2)n1 (stereo unspecified)	95	i	1.1	-11	.	.	-0.8
O=C(O)CCC(=O)N1CCc2cc(S(=O)(=O)Nc3ccc4c(c3)OCCO4)ccc21	124	i	1	-8	.	.	-0.9
CC(C)CCn1c(Oc2ccccc2Cl)nc2c1c(=O)n(C)c(=O)n2C	104	i	0.94	-3	10	90	1.2
CC(C)c1onc(C(=O)NC2CCCC2)c1[N+](=O)[O-]	107	i	0.93	-5	-53	119	.
Cc1cccn2cc(-c3ccc(S(=O)(=O)N4CCOCC4)cc3)nc12	97	i	0.85	1	.	.	-2.2
CC1(C)NC(=O)N(CC(O)Cn2nnc3ccccc32)C1=O (stereo unspecified)	99	i	1	-5	0	125	-1.1
Cc1ccc2c(c1)c(N=NC(N)=O)c(O)n2C	107	i	0.9	5	13	59	.
O=C(NCc1ccco1)c1sc2cccc(F)c2c1Cl	108	i	1	2	-38	114	-3.5
O=C(Cc1ccc([N+](=O)[O-])cc1)N/N=C/c1ccco1	93	i	1.1	-5	.	.	.

Six compounds out of the list above, ordered by the value under HSV replic up primary fold, highest first.
SMILES	RGS16-Gao	HSV replic up	HSV replic up primary fold	PKD1 inh	GALR2 agonist
Cc1ccc(C(=O)Nc2cccc(N(C)S(C)(=O)=O)c2)cc1S(=O)(=O)Nc1ccccc1	107	i	1.2	12	-1.7
O=C(Cc1ccc([N+](=O)[O-])cc1)N/N=C/c1ccco1	93	i	1.1	-5	.
CC1(C)NC(=O)N(CC(O)Cn2nnc3ccccc32)C1=O (stereo unspecified)	99	i	1	-5	-1.1
Cc1ccc2c(c1)c(N=NC(N)=O)c(O)n2C	107	i	0.9	5	.
Cc1cccn2cc(-c3ccc(S(=O)(=O)N4CCOCC4)cc3)nc12	97	i	0.85	1	-2.2
C[C@@H]1CC=C[C@H]2[C@H]1C(=O)N(Cc1ccccc1)[C@H]2c1ccc(Br)cc1F	102	i	0.75	.	.
